KAT2A inh = qHTS Assay for Inhibitors of GCN5L2; Potency, µM (doses to about 58.9 µM), inactives show top-dose activity change, negative = inhibition, usual class: inhibitors; GCN5L2 HAT assay, ThioGlo1 CoA-SH fluorescence; Histone acetyltransferase KAT2A (Homo sapiens), Q92830; actives 0.21% (n = 390,000); active = well fitted inhibition curve with a large enough effect; inconclusive = small, poorly fitted or top-dose-only effect, or another doubt; inactive = no such curve, though single readings can be large or run the other way
Target sequence (Q92830 whole entry, looked up): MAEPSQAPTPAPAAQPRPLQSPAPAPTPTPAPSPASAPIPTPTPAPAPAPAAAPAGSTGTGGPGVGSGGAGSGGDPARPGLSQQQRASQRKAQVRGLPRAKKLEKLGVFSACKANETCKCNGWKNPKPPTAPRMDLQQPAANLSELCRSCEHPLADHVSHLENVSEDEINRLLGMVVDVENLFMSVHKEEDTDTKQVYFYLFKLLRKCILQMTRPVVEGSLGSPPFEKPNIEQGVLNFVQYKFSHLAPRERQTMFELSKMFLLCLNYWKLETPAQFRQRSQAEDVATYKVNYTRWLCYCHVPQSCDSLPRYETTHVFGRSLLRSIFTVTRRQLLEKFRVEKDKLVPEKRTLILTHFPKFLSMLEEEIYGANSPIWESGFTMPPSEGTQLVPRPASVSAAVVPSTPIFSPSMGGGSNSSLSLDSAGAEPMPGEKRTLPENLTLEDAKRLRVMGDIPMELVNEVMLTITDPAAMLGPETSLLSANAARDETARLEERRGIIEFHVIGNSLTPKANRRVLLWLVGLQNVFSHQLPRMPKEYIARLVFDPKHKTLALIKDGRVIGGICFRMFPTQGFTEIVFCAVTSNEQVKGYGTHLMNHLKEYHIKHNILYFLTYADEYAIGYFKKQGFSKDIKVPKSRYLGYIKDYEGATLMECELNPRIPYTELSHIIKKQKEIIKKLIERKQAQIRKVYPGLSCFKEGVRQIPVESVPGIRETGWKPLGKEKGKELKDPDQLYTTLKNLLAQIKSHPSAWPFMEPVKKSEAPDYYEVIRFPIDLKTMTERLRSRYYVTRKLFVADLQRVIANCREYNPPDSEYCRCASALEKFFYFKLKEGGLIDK
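Free CoA generated was detected with ThioGlo1 (50uM) fluorescence at Ex340nm/Em540nm, read immediately and after 20 min at room temperature. Enzyme, 20 nM in HEPES pH 7.5 buffer, saw compounds 15 min before adding 75uM H3(1-25) peptide and 70uM acetyl-CoA.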
* = called active by the depositor; ? = inconclusive; & = joins results of further samples; [ ] = remark or other dose. % is set by controls: 0 for no effect and ±100 for the full control effect; potency is the fitted concentration of half-maximal effect. The list is partial, and most or all hits are left out here.

KAT2A inh,compound
-15.2%,CN(CC(=O)NCc1ccccc1)S(=O)(=O)c1cnc[nH]1
-1.5%,O=C(NC1CCCC1)c1ccc(Br)o1
-4.7%,CC(=O)c1c(C)[nH]c(C(=O)CSc2ccc(F)cc2)c1C
2.1%,CC(CC(=O)NCCc1ccc(F)cc1)c1ccccc1 (centres undefined)
1.7%,Cc1ccc2nc(-c3ccc(Cl)c(NC(=O)COc4ccc([N+](=O)[O-])cc4)c3)oc2c1
-1.6%,CCOc1ccc2nc(N3CCCC(C(=O)Nc4ccc(OC)c(Cl)c4)C3)sc2c1 (centres undefined)
1.5%,CCNc1nc(NCC)nc(Nn2cnnc2)n1
-5.0%,O=C(NCCCO)c1nn(-c2ccc(Cl)cc2)nc1CO
-1.2%,Oc1cccc2ccc[n+](CC(O)Cn3c4ccccc4c4ccccc43)c12 (centres undefined)
-1.0%,Cc1noc(C)c1COc1cccc(C(=O)Nc2ccccc2N2CCOCC2)c1
?,COc1ccccc1NC(=O)Cn1nc(C(F)(F)F)c2c1CCCC2
-9.7%,Cc1cc(NC(=O)CCC(=O)N(Cc2ccco2)C2(C(=O)NC3CCCCC3)CCCC(C)C2)no1 (centres undefined)
-10.6%,O=C(Cn1ncc2c3ccccc3n(Cc3ccccc3)c2c1=O)NCCCN1CCOCC1
3.5%,CC(Oc1ccc(Cl)cc1Cl)C(=O)Nn1cnnc1 (centres undefined)
-6.1%,CCOC(=O)c1noc2ncnc(Nc3ccc(C)c(F)c3)c12
?,O=C(CC1c2ccccc2Oc2ccccc21)N1CCN(c2ccccn2)CC1
-12.9%,O=C(c1ccc(C(F)(F)F)cc1)N1CCC(=O)N(C(COCc2ccc(Cl)cc2)Cc2ccccc2)CC1 (centres undefined)
0.4%,CCCCNC(=O)CN(c1cccc(Br)c1)S(C)(=O)=O
0.0%,NC(=O)C(=O)NCCCN1CCOCC1
-6.2%,COc1ccc(S(=O)(=O)N2CCN(Cc3nc4ccc(C)cc4o3)CC2)cc1
-11.0%,COc1cc(/C=C\C(=O)OCn2nnc3ccccc3c2=O)cc(OC)c1OC
-1.9%,CCCCN(C(=O)C1CC(=O)N(c2ccc3c(c2)OCCO3)C1)c1c(N)n(CCC)c(=O)[nH]c1=O (centres undefined)
3.5%,CN(C(=O)CSc1nnc(-c2ccc3c(c2)OCO3)o1)C1CCS(=O)(=O)C1 (centres undefined)
-1.5%,CCCn1c(CNC(=O)c2ccc(F)cc2)nc2ccccc21
-7.6%,C=CCNc1nc(C)c(C(C)=O)cc1C#N
-9.5%,CCC(Oc1cccc(Cl)c1)C(=O)N1CCCN(C)CC1 (centres undefined)
0.7%,CCCc1nnc(NC(=O)CCC(=O)NC2CCCc3ccccc32)s1 (centres undefined)
-4.9%,Cc1ccc(NC(=O)CN2C(=O)NC3(CCCCCC3)C2=O)cc1Cl
-3.7%,CCOC(=O)C1=C(CN2CCN(c3cccc(OC)c3)CC2)NC(=O)NC1c1ccc(OC)cc1 (centres undefined)
-7.1%,Cc1ccc(C(=O)N2CCn3c(C)ccc3C2C)cc1 (centres undefined)

Carrying on:
KAT2A inh,compound
-12.6%,CC1CN(C(=O)N2CCC(C(=O)NCc3cccs3)CC2)c2cc(Cl)ccc2O1 (centres undefined)
-20.1%,O=C(NC(=S)Nc1cccc2c(O)cccc12)c1cccc(Br)c1
-2.1%,CCCCNC(=O)c1onc(CCl)c1C(=O)OC
-38.5%,COc1ccc(NC(=O)CCc2nnc3ccc(NCc4ccco4)nn23)cc1OC
-25.1%,CC1CCN(S(=O)(=O)c2cc(Cl)ccc2Br)CC1
-5.3%,CN(C)c1ccc(NC(=O)c2cccc(N3C(=O)C4C5C=CC(C5)C4C3=O)c2)cc1 (centres undefined)
-4.3%,Cc1cccc(CNC(=O)CCc2nnc(C3CCCCC3)o2)c1
-15.0%,COc1ccccc1N1CCN(S(=O)(=O)c2ccc(-c3ccno3)cc2OC)CC1
-3.6%[0.501 µM],COC(=O)c1scc(C)c1N/N=C(\C)c1ccc(F)cc1F
-22.6%,O=C(COC(=O)c1ccc(O)cc1)Nc1ccc2[nH]c(=O)[nH]c2c1
?,COc1ccccc1CC(=O)Nc1cc(C)ccn1
-0.2%,O=C(CSc1nnnn1Cc1ccccc1)Nc1ccc2c(c1)OCO2
12.1%,Cc1ccc(C)c(-n2cc(CN3CCNC(=O)CC3)c(-c3ccccc3)n2)c1
-1.5%,O=c1oc2ccccc2n1CCCCCn1c(=O)oc2ccccc21
-5.7%,CCOC(=O)N1CCN(c2ccc(C(=O)c3ccccc3)cc2F)CC1
-2.3%,Cc1ccc(C)c(OC(=O)CSc2nnc(-c3cccs3)o2)c1
-8.8%,CCOC(=O)c1ccccc1NC(=O)Cn1ncc2c1-c1ccccc1OC2
-8.3%,COc1cc(NC(=S)Nc2ccc(N(C)C(C)=O)cc2)cc(OC)c1
-1.6%,CN(CC(=O)Nc1ccc(Cl)cc1)CC(=O)Nc1ccc(F)c(F)c1F
?,COc1cccc(OCC(O)CN2CCN(c3ccc(Cl)cc3)CC2)c1 (centres undefined)
-3.3%,COC(=O)Cn1c(CN2CCN(C(=O)c3ccco3)CC2)nc2c1c(=O)n(C)c(=O)n2C
-2.4%,CCOc1ccsc1C(=O)OC
-3.1%,CC(=O)Nc1ccc2c(c1)nc1n2CCN(C(C)c2ccccc2)C1 (centres undefined)
2.0%,COc1ccc(-n2cnc3c(cnn3CCC#N)c2=N)cc1
1.6%,CC1CN(CCn2cnc3c(N)ncnc32)CC(C)O1 (centres undefined)
-15.6%,Cc1ccc(OCC(=O)Nc2nnc(SCc3cc(=O)n4cccc(C)c4n3)s2)cc1
-9.7%,Cc1nnc(Cn2cnc3c2c(=O)n(C)c(=O)n3C)o1
-1.0%,CCC1CCc2c(sc(NC(=O)c3cccnc3)c2C(N)=O)C1 (centres undefined)
0.8%,COc1cc(S(=O)(=O)Nc2ccccc2N2CCCCC2)ccc1NC(C)=O
0.2%,O=C(Nc1cc(S(=O)(=O)N2CCCCC2)ccc1Cl)c1ccncc1

Continuation.
KAT2A inh,compound
2.9%,O=C(Nc1ccc(N2CCN(C(=O)c3ccco3)CC2)cc1)c1ccc2c(c1)OCO2
-9.5%,CCOC(=O)c1c(C)n(C)c2ccc(OCC(O)CN(CC)CC)cc12 (centres undefined)
-12.7%,Cc1cc(-c2ccc(C)c(S(=O)(=O)N3CCN(c4ccccn4)CC3)c2)on1
?,CCc1c(C)sc(NC(=O)c2cccs2)c1C(N)=O
-5.9%,COc1ccc(-n2nnnc2SCC(=O)N2C(C)CCCC2C)c(OC)c1 (centres undefined)
-5.6%,Cc1ccccc1-n1c(=O)n(CCc2ccccc2)c(=O)c2[nH]cnc21
-3.3%,c1ccc(OCc2nc(-c3ccccc3)no2)cc1
-17.2%,CCCCNC(=O)c1c(CSc2ccc(Cl)cc2)noc1C(=O)NCCC
-0.2%,CC(C)CCNC(=O)CN(CC1CCCO1)C(=O)CCC(=O)Nc1ccccn1 (centres undefined)
30.4%,CN(C)c1ccc(NC(=O)/C=C/c2c(Cl)cccc2Cl)cc1
-15.7%,CCOc1ccc(NC(=O)CN2CCCN(Cc3cc(C)ccc3C)S2(=O)=O)cc1
-0.8%,COCc1cc(/C=N\NC(=O)Cc2ccc(Cl)cc2)ccc1OC
-0.5%,COc1ccc(NC(=O)CSc2nnc(CNC(=O)c3ccco3)o2)c(OC)c1
-1.1%,COc1ccc(NC(=O)Cn2nnc(C(=O)NCc3cccs3)c2N)cc1Cl
6.1%,COC(=O)c1sccc1NC(=O)c1ccc(OC)cc1
-3.4%,CCOc1ccc(N(C)S(=O)(=O)c2ccc3c(c2)CCCN3C(C)=O)cc1
-7.9%,CCCOc1ccc(N2C(=O)CC(S/C(N)=N/N=C(\C)c3cccs3)C2=O)cc1 (centres undefined)
-13.9%,Cc1nn(C)c(C)c1CNC(=O)Nc1cccc(Cl)c1
-16.0%,Cc1cc(N2CCCC2=O)cc(C)c1CN1C(=O)c2ccccc2C1=O
2.9%,O=C(c1cccc(Cl)c1)N1CCCC(C(=O)N2CCN(c3ccccc3)CC2)C1 (centres undefined)
-4.8%,Cc1ccc(C(=O)NCCN2CCOCC2)cc1Cl
-16.0%,O=C(NCCc1ccccc1)c1ccccc1Cl
4.0%,Cc1ccc2nc(SC(C(=O)Nc3ccc(F)cc3)c3ccccc3)[nH]c2c1 (centres undefined)
-4.3%,O=C(c1ccccc1)c1ccc(N2CCN(C(=O)c3cccc(F)c3F)CC2)c(F)c1
22.4%,CC1CC(C)CN(Cc2nc(N)nc(Nc3ccccc3)n2)C1 (centres undefined)
-6.8%,COc1ccc(OC)c(NC(=O)NNS(=O)(=O)c2ccc(C)cc2C)c1
-4.3%,O=C(CSc1nnc(COc2ccc(Cl)cc2)o1)Nc1ccccc1
-11.2%,O=C(CSCc1cnn(-c2ccccc2)c1-n1cccc1)NCc1ccc2c(c1)OCO2
1.7%,CCC(C)(C)c1ccc(Oc2cccc(C(=O)O)c2)cc1
-5.7%,O=C(COC(=O)COc1ccc(Cl)cc1)NC1CCCCCC1

6 compounds picked at random from those above, as already listed:
KAT2A inh,compound
-15.2%,CN(CC(=O)NCc1ccccc1)S(=O)(=O)c1cnc[nH]1
-0.2%,CC(C)CCNC(=O)CN(CC1CCCO1)C(=O)CCC(=O)Nc1ccccn1 (centres undefined)
-1.5%,O=C(NC1CCCC1)c1ccc(Br)o1
-1.6%,CCOc1ccc2nc(N3CCCC(C(=O)Nc4ccc(OC)c(Cl)c4)C3)sc2c1 (centres undefined)
-12.9%,O=C(c1ccc(C(F)(F)F)cc1)N1CCC(=O)N(C(COCc2ccc(Cl)cc2)Cc2ccccc2)CC1 (centres undefined)
30.4%,CN(C)c1ccc(NC(=O)/C=C/c2c(Cl)cccc2Cl)cc1

The list continues:
KAT2A inh,compound
-3.2%,CC(C)CC(=O)Nc1ccc2c(c1)OCO2
-2.5%,Cc1ccc(Cn2ccsc2=NC(=O)COC(=O)c2ccc(O)cc2O)cc1
-6.1%,CC(=O)Nc1cc2c(cc1NC(=O)Cn1nc(-c3ccc4c(c3)OCCO4)ccc1=O)OCCO2
-7.2%,COCCNc1nc2c(S(=O)(=O)c3cc(C)ccc3C)nnn2c2ccccc12
0.3%,CCCNC(=O)N1[C@H](c2ccc(C)s2)[C@@H](C)C(=O)[C@@H](C)[C@@H]1c1ccc(C)s1
-3.5%,COc1ccccc1COC(=O)c1ccc(S(=O)(=O)N2CCOCC2)cc1
?,O=C(c1ccco1)N1CCN(c2nc3ccccc3c(=O)n2-c2ccccc2)CC1
-0.7%,COc1ccc(-c2cc(C(=O)NNC(=S)NC(=O)c3c(-c4ccccc4)noc3C)[nH]n2)cc1
0.1%,O=C(/C=C/Nc1ccc(Cc2ccc(N/C=C/C(=O)C(F)(F)F)cc2)cc1)C(F)(F)F
-3.5%,COc1ccc(S(=O)(=O)c2nnn(-c3ccccc3F)c2C)cc1
-0.5%,CCCCn1c(N)c(N(CC(C)C)C(=O)CSC(C)C(=O)Nc2cc(C)on2)c(=O)[nH]c1=O (centres undefined)
?,Cc1ccc(S(=O)(=O)/N=C(\c2ccccc2)N(C)S(=O)(=O)c2ccc(C)cc2)cc1
0.0%,O=c1c2cnn(-c3ccccc3Cl)c2ncn1Cc1cccnc1
-4.8%,CC(=O)c1sc2nsc(SCCN3CCCCC3)c2c1N
-4.9%&0.6%,COc1ccccc1CNC(=O)CCCn1nc(C)c2c(C)n(-c3ccc(C)cc3)nc2c1=O
-6.2%,Cc1cc(C)c2nc(SCC#N)cc(C)c2c1
4.7%,CC1CCN(C(=S)NC(=O)c2cccc([N+](=O)[O-])c2)CC1
-6.1%,CC(C)c1ccc(NC2CCCN(C(=O)c3cnsn3)C2)cc1 (centres undefined)
-0.8%,NC1=NC(c2ccc(Cl)cc2)n2c(nc3ccccc32)N1 (centres undefined)
-5.0%,CCn1c(CCc2ccccc2)nnc1SCC(N)=O
0.6%,CC(C)C(=O)Nc1cccc(C(=O)OCC(=O)c2ccc(Cl)cc2Cl)c1
3.7%,Brc1ccccc1-n1nnc(-c2nccs2)n1
-7.5%,CCCCNC(=O)c1ccc(NS(=O)(=O)c2ccccc2)cc1
-14.4%,Cc1ccsc1CN1CC(=O)N(c2c(C)cccc2C)C1=S
-2.9%,CCOC(=O)N1CCN(C(=O)COc2ccc(Cl)cc2C)CC1
-4.1%,O=[N+]([O-])c1cccc(/C=N/Nc2nc(C(Cl)(Cl)Cl)nc3ccccc23)c1
-27.5%,CCc1cc(CNC(=O)c2ccc(OC3CCN(C(C)=O)CC3)c(OC)c2)on1
-17.3%,CCCc1[nH]nc2c1C(c1cccc(OC(=O)c3ccco3)c1)C(C#N)=C(N)O2 (centres undefined)
-3.0%,Fc1ccccc1NC(=S)NCc1ccc2c(c1)OCO2
-5.4%,C#CCn1c(=NC(=O)CN2C(=O)CCC2=O)sc2cc(S(N)(=O)=O)ccc21

Another view of part of the listing above:
O=[N+]([O-])c1cccc(/C=N/Nc2nc(C(Cl)(Cl)Cl)nc3ccccc23)c1
  KAT2A inh = -4.1%
CCc1cc(CNC(=O)c2ccc(OC3CCN(C(C)=O)CC3)c(OC)c2)on1
  KAT2A inh = -27.5%
CCCc1[nH]nc2c1C(c1cccc(OC(=O)c3ccco3)c1)C(C#N)=C(N)O2 (centres undefined)
  KAT2A inh = -17.3%

Next section.
KAT2A inh,compound
1.8%,O=C(COC(=O)Cn1cnc2ccccc21)NCCC1=CCCCC1
-5.4%,COc1ccc(/C=C/C(=O)c2cccc(-n3cnnn3)c2)cc1O
-2.8%,CC(O)[C@@H](C(=O)N1CCNCC1)n1cc(CCCCN)nn1 (some centres undefined)
32.1%[activator],CC(C)(C)c1cc(C(=O)N/N=C/c2ccco2)n[nH]1
2.5%,Cc1nn(Cc2ccc(F)cc2)c(C)c1NC(=O)c1cnn2cccnc12

Copied from the list:
`COc1ccc(/C=C/C(=O)c2cccc(-n3cnnn3)c2)cc1O` | KAT2A inh = -5.4%
`CC(O)[C@@H](C(=O)N1CCNCC1)n1cc(CCCCN)nn1` (some centres undefined) | KAT2A inh = -2.8%
